CtBP-E1A blk: qHTS Assay for Inhibitors of the CtBP/E1A Interaction. 340,000 compounds, 0.49% hits. activity change, % (concentration not given with the values). AlphaScreen GST-E1A/His-CtBP binding, 1536-well; active compounds read low; control for the full effect not named in the record; in the data active means activity change below about -65%; inconclusive means about -30% to -65%; inactive means above about -30%; also: % is scaled to controls: 0 for no effect and ±100 for the full control effect
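In 5 uL wells, 23 nL compound meets equimolar GST-E1A and His-CtBP (5X stock 125 nM each) for 2 h, 37 °C. Beads (5X, 50 ug/mL) then 1 h, 37 °C, dark.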
Sfp PPTase inh: qHTS Assay for Inhibitors of Bacillus subtilis Sfp phosphopantetheinyl transferase (PPTase) | 4'-phosphopantetheinyl transferase ffp (Bacillus subtilis), Q9F4F7 | 310,000 compounds, 3.5% hits | Potency, µM, without a hit: max response, negative = inhibition, most hits filed as inhibitors | AID 1490, 2009 | Biochemical Sfp PPTase activity, qHTS; active = well fitted inhibition curve with a large enough effect; inconclusive = small, poorly fitted or top-dose-only effect, or another doubt; inactive = no such curve, though single readings can be large or run the other way;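 also: the enzyme is Sfp with the accession as filed and its product quenches rhodamine fluorescence; potency is read from the fitted curve at half-maximal effect; 0% = enzyme reaction without inhibitor and -100% = no enzyme wells; top concentration of the series not given in the record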
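Step 1, compound plus 15 nM Sfp-PPTase, 15 min, room temperature. Step 2, add rhodamine-CoA (5 uM) and BHQ-2-YbbR (12.5 uM). Step 3, read 525/598 nm fluorescence at 0 and 30 min.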
gsp ag: qHTS for Agonist of gsp, the Etiologic Mutation Responsible for Fibrous Dysplasia/McCune-Albright Syndrome: qHTS. gsp mutant cells, cAMP HTRF, 30 min; control for the full effect not named in the record. Potency, µM (series often up to 76.9 µM), without a hit: top-dose activation (cAMP increase), usual class: activators. 340,000 compounds, 0.13% hits. AID 624287, 2012; active = well fitted activation curve with a large enough effect; inconclusive = small, poorly fitted or top-dose-only effect, or another doubt; inactive = no such curve, though single readings can be large or run the other way; cell line not stated here;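 also: phosphodiesterase inhibitor Ro 20-1724 added with compounds to block cAMP breakdown; potency is read from the fitted curve at half-maximal effect; nearly all actives have a fitted effect of over 60% in size; about a fifth of the inactives were tested at one dose only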
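Cells stably selected in G418 were plated at 2000/well, grown 16-24 hr, then given compounds in DMSO with the PDE inhibitor […] (300 uM solution added) for 30 min at 37C; cAMP was read by HTRF.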
ClpP mod: qHTS Assay for Activators of ClpP; ATP-dependent Clp protease proteolytic subunit (Bacillus subtilis (strain 168)), P80244; purified B. subtilis ClpP, FRET peptide cleavage, 20 min; Potency, µM (series often up to 57.5 µM), inactives show top-dose activity change, negative = active; 340,000 compounds, 1.9% hits; active = well fitted falling curve with a large enough effect; inconclusive = small, poorly fitted or top-dose-only effect; inactive = no such curve, though single readings can be large or run the other way; also: potency is read from the fitted curve at half-maximal effect; the source files actives as falling curves though it sought activators and does not explain the sign; nearly all actives have a fitted effect of over 65% in size; many hits overshoot -100%
Target sequence (P80244 whole entry, looked up): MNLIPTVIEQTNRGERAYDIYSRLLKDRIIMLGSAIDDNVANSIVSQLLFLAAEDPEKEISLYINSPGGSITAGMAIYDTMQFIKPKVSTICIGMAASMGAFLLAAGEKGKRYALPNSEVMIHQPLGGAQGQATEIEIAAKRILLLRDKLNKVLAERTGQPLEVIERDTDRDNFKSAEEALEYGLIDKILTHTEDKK
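Buffer: 100 mM Tris/HCl pH8, 100 mM KCl, 0.05% low protease BSA, 2.5% glycerol, 0.01% Tween-20. ClpP 10 microg/mL final; 20 min RT; delta FRET normalized to ADEP and DMSO controls.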
gsp antag: qHTS for Antagonists of gsp, the Etiologic Mutation Responsible for Fibrous Dysplasia/McCune-Albright Syndrome: qHTS. gsp-mutant cells, cAMP HTRF, 30 min; control for the full effect not named in the record. Potency, µM (titrated, usually from 76.9 µM), for the others: at the top dose activity change, negative = inhibition, hits mostly inhibitors. 340,000 compounds, 0.4% hits. AID 624288, 2012; active = falling curve of any shape with a large fitted effect; inconclusive = falling curve, mostly with a smaller effect; inactive = flat or rising curve; cell line not stated here;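 also: intracellular cAMP measured with PDE inhibitor Ro 20-1724 present during compound exposure; potency is read from the fitted curve at half-maximal effect; % is scaled to controls: 0 for no effect and ±100 for the full control effect; nearly all actives have a fitted effect of over 65% in size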
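Measurement of cellular cAMP by homogeneous time-resolved fluorescence following a 30 min compound exposure at 37C. The PDE inhibitor […] was present throughout; the assay buffer was DPBS with 0.05% BSA and 0.005% Tween 20.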
TRPV1 potentiator: HTS Assay for Compounds that Act as Potentiators of the Vanilloid Receptor 1 | Transient receptor potential cation channel subfamily V member 1 (Homo sapiens), Q8NER1 | TRPV1-expressing cells, Fluo-8 calcium influx, capsaicin EC20 potentiation; host cell line not named in the record; control for the full effect not named in the record | potentiation, % at 8.33 µM | 320,000 compounds, 0.02% hits | AID 540277, 2011; active means potentiation above 80%; inconclusive means 30% to 80%; inactive means below 30%; also: 0% is about no effect
Target sequence (Q8NER1 whole entry, looked up): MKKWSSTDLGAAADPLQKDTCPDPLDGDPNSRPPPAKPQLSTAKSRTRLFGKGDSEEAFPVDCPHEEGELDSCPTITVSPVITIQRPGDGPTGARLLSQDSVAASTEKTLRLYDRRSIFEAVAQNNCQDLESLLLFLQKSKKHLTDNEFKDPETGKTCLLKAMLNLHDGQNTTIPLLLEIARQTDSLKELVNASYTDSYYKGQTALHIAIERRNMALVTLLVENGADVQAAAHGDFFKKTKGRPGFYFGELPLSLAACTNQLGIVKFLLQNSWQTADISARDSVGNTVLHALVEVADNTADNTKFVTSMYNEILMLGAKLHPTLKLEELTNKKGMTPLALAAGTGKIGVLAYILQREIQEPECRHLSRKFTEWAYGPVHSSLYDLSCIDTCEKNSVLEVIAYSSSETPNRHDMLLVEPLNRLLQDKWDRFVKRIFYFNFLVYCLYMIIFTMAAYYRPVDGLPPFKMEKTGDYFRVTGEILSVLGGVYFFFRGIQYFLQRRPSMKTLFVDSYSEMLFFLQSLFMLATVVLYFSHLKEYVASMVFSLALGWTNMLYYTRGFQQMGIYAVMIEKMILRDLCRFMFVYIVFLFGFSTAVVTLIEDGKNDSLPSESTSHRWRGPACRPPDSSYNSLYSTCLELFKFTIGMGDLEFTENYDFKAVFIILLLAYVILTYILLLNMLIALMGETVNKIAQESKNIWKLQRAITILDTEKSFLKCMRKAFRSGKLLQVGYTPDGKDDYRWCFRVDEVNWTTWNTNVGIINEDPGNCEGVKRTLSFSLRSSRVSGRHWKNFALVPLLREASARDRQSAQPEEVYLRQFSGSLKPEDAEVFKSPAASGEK
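Cells expressing TRPV1 were dye-loaded with Fluo-8 and read kinetically: 10 s baseline, 3 min after compound (agonist portion), then 2 min after EC20 capsaicin (allosteric enhancer portion). Calcium-bound dye fluorescence at 480/520 nm.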
Menin MLL FP FL: qHTS Assay for Inhibitors Targeting the Menin-MLL Interaction in MLL Related Leukemias: Competition With Fluorescein Labeled MLL-derived Peptide; 290,000 tested, under 10 active; Fluorescence polarization, fluorescein-MLL peptide displacement from menin; FP activity change, % at 61.4 µM; AID 1766, 2009; inconclusive = falling polarisation curve, or a change in total fluorescence; inactive = total fluorescence flat and polarisation flat or rising; no compound was filed as active; the % refers to the polarisation; negative = inhibition;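 also: % of control where 0% means no effect; inhibitors lower the polarisation; unlabelled MLL peptide was the positive control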
The depositor's hits bear a star; ? = inconclusive; . = not tested or not shown; [ ] = dose if it differs, or a comment.

SMILES	CtBP-E1A blk	Sfp PPTase inh	gsp ag	ClpP mod	gsp antag	TRPV1 potentiator	Menin MLL FP FL
C=CCn1c(C)nc2c(cnn2-c2ccccc2)c1=O	2	14%	-8%	.	-5%	-5	-0.9
COCCCNc1ncnc2c1[nH]c1ccccc12	.	-9%	.	.	.	-3	-2.9
COc1ccc(Br)cc1S(=O)(=O)NCc1ccccn1	-4	19%	5%	-1.8%	7%	-10	-1.2
c1cc(N2CCCC2)ccc1C(c1nnnn1C1CCCCC1)N1CCOCC1 (configuration not stated)	-3	?	-3%	1.5%	-7%	-9	-0.6
O=C(CCS(=O)(=O)c1cccs1)Nc1ccc(C(=O)NCc2cccs2)cc1	37	-3%	?	-0.6%	-16%	5	-1.5
Cc1ccc(CNC(=O)Cn2ccc3cc(S(=O)(=O)N4CCCCCC4)ccc32)cc1	2	17%	-25%	-12%	-7%	-1	-1.2
CCn1nc(C)cc1C(=O)N1CCCC(N2CCN(Cc3ccc4c(c3)OCO4)CC2)C1 (configuration not stated)	4	2%	-29%	.	7%	21	-2.4
Cc1ccc(SC(C)C(=O)Nc2c(C)n(C)n(-c3ccccc3)c2=O)cc1 (configuration not stated)	1	10%	-1%	-0.6%	11%	8	7.2
COc1ccc2oc(C(=O)OCC(=O)N(CCC#N)c3ccccc3)c(C)c2c1	3	0%	-6%	32µM*	-14%	-2	.
CCNC(=S)N(CCc1ccc(S(N)(=O)=O)cc1)C1CC(=O)N(c2ccccc2)C1=O (configuration not stated)	-17	-12%	-23%	.	-3%	-6	-0.8
COc1cccc(C(=O)NCC(=O)OCC(=O)C(C)(C)C)c1	.	7%	-2%	-2.8%	0%	0	-0.8
CC1=C(C(=O)OC(C)C)C(c2cccc(F)c2)n2ncnc2N1 (configuration not stated)	0	20%	-92%	-0.3%	-6%	1	0.8
COC(=O)c1c(-c2cccs2)csc1NC(=O)CSc1ncnc2sc(C)c(C)c12	2	5%	-2%	-11%	8%	-9	2.8
Cc1nn(-c2ccccc2)c(C)c1C(=O)Nc1nnc(-c2ccco2)o1	-8	28%	2%	-0.6%	-14%	0	-0.7
C=CCNC(=O)c1ccccc1SCc1c(C)noc1C	0	-7%	19%	-0.1%	6%	?	.
CCOc1ccccc1C(=O)Nc1ccc(S(=O)(=O)Nc2nccc(C)n2)cc1	-3	20%	6.3µM*	.	29%	12	-0.8
COc1ccccc1C(=O)NC(=O)COc1cc(Cl)ccc1Cl	-24	.	-34%[15.4 µM]	.	10%	-2	.
Cc1cc(C(F)(F)F)c(C#N)c(SCC(=O)Nc2nc3ccccc3s2)n1	2	3%	18%	-2.0%	-4%	-14	?
CC1=NN(C(N)=S)C(=O)C1N=Nc1ccc(Cl)cc1 (configuration not stated)	4	-5%	7%[15.4 µM]	0.3%	-10%	-1	0.9
Cc1ccc(/C=C2\SC(=S)N(CCC(=O)Nc3cccnc3)C2=O)cc1	6	6%	-32%[inhibitor]	-1.4%	-4%	2	0.0
CCOc1ccc2nc(NC(=O)CSc3nc(SC)ns3)sc2c1	16	-4%	-23%	28µM*	-11%	16	3.2
CC(C)[C@H](NS(=O)(=O)c1ccc(Cl)cc1)C(=O)OCC(=O)c1c(N)n(C)c(=O)n(C)c1=O	4	.	?	1.4%	13%	-5	.
Cc1ccc(-c2csc3nc(SCC(N)=O)n(Cc4ccccc4)c(=O)c23)cc1	0	-5%	-13%	25%	?	26	-1.4
COC(=O)c1cc(C(=O)OCC(=O)c2ccc3c(c2)NC(=O)CO3)cc([N+](=O)[O-])c1	-5	.	9%	-3.2%	-4%	3	.
O=S1(=O)CC(O)C(N2CCCCC2)C1 (configuration not stated)	1	18%	?	11µM*	5%	-3	3.4
CCN(CC(=O)Nc1c(F)cccc1F)C(=O)CCOc1ccc(C)cc1	3	.	21%	-0.5%	11%	11	.
Cc1cc(C)n2nc(/C(C#N)=C/c3ccccc3)c(C#N)c2n1	0	-15%	6%	-25%	-10%	-7	3.8
Cc1cccc2cc(CN(Cc3cccnc3)C(=S)NCCCN(C)C)c(=O)[nH]c12	-2	2%	-1%[15.4 µM]	.	6%	3	0.0
COc1cccc2c1NC(C(=O)O)C1CC=CC21 (configuration not stated)	0	7.9µM*	-1%[15.4 µM]	-6.1%	-2%	-3	4.3
CCC(=O)N1CCc2cc(Br)cc(S(=O)(=O)N3CCC(C(=O)NCCCOC(C)C)CC3)c21	-12	-9%	?	-1.1%	-6%	10	-0.5

Full records, looked up by structure.
Profile of Cc1ccc(-c2csc3nc(SCC(N)=O)n(Cc4ccccc4)c(=O)c23)cc1 → CtBP-E1A blk: 0; Sfp PPTase inh: -5%; gsp ag: -13%; ClpP mod: 25%; gsp antag: ?; TRPV1 potentiator: 26; Menin MLL FP FL: -1.4
Profile of CC(C)[C@H](NS(=O)(=O)c1ccc(Cl)cc1)C(=O)OCC(=O)c1c(N)n(C)c(=O)n(C)c1=O → CtBP-E1A blk: 4; Sfp PPTase inh: .; gsp ag: ?; ClpP mod: 1.4%; gsp antag: 13%; TRPV1 potentiator: -5; Menin MLL FP FL: .
Profile of COC(=O)c1cc(C(=O)OCC(=O)c2ccc3c(c2)NC(=O)CO3)cc([N+](=O)[O-])c1 → CtBP-E1A blk: -5; Sfp PPTase inh: .; gsp ag: 9%; ClpP mod: -3.2%; gsp antag: -4%; TRPV1 potentiator: 3; Menin MLL FP FL: .

More compounds:
SMILES	CtBP-E1A blk	Sfp PPTase inh	gsp ag	ClpP mod	gsp antag	TRPV1 potentiator	Menin MLL FP FL
COC(=O)CSc1nnc(CNC(=O)c2ccc(S(=O)(=O)N3CCCCC3)cc2)n1C	7	21%	30%	-2.1%	3%	-2	-0.7
COc1ccc(Nc2ncccc2C(=O)NCc2ccccc2)cc1	-10	3%	-35%[inhibitor]	-3.0%	-12%	0	-1.7
CC(C)Cc1nnc(NS(=O)(=O)c2ccc(Cl)cc2)s1	3	17%	-29%	1.4%	-13%	7	-2.0
COc1ccc(NC(=S)NNc2ccc(S(=O)(=O)Nc3ccccc3C(=O)O)cc2[N+](=O)[O-])cc1	?	79µM*	-20%	1.2%	-22%	11	1.4
Cc1ccccc1NC(=O)COC(=O)c1ccc2c(c1)C(=O)N(CCCN1CCOCC1)C2=O	4	.	18%	-0.9%	-13%	.	.
O=C(Nn1c(-c2ccncc2)nc2ccccc2c1=O)c1ccc(Br)cc1	19	3%	6%[15.4 µM]	.	-4%	-13	12
CC(OC(=O)Cn1[nH]c(=O)c2ccccc2c1=O)C(=O)Nc1ccc(Cl)cn1 (configuration not stated)	5	.	0%	-6.8%	-1%	-4	.
CCOCCCNC(=O)/C(C#N)=C/c1cc(C)c(O)c(C)c1	.	13%	-47%[inhibitor]	0.1%	-1%	0	14
O=C(Cc1ccccc1)Nc1ccc(N2CCOCC2)cc1	-4	19%	?	.	8%	4	-1.8
CCCC12CN3CC(C)(CN(C1)C3c1cccs1)C2=O (configuration not stated)	-3	1%	-5%[15.4 µM]	0.2%	6%	3	-0.9
COc1ccc2c(c1OC)C(=O)N1c3ccccc3COC21 (configuration not stated)	-5	13%	20%	-8.3%	0%	-3	4.0
CC(Cl)C(=O)NN=C(c1ccccc1)c1ccccc1 (configuration not stated)	-2	-15%	-15%	-0.3%	-2%	1	-1.8
CCOc1ccccc1NC(=O)c1ccc(C(=O)Nc2ccccc2OCC)nc1	14	12%	-24%	0.7%	1%	4	-8.0
COCCCN1CN=C(Nc2nc3ccccc3o2)NC1	-5	-25%	-14%[15.4 µM]	0.5%	8%	-8	1.0
O=C1CSc2cc(Cl)ccc2N1	7	.	0%	.	1%	.	.
CCOc1ccc(CCNc2ccc3nnc(-c4ccccc4)n3n2)cc1OCC	?	31%	2%	-1.1%	12%	14	4.0
Cc1cc2cc(C(c3nnnn3Cc3ccccc3)N3CCc4ccccc43)c(=O)[nH]c2cc1C (configuration not stated)	-12	35µM*	8%	-4.9%	-10%	2	?
C=CCN1C(=O)/C(=C\c2ccc(C)cc2)N=C1SCC(=O)NCCC	-3	-7%	11%	-2.0%	-3%	-18	15
O=C(CCC(=O)N1CCN(c2ccc(O)cc2)CC1)c1ccc(Br)cc1	.	?	.	.	.	-14	-1.4
c1ccc(Cn2nnc(-c3ccccc3)n2)cc1	22	13%	-6%	-0.9%	-7%	8	-0.4

Overlap with the part before: two compounds, followed by the next part.
SMILES	CtBP-E1A blk	Sfp PPTase inh	gsp ag	ClpP mod	gsp antag	TRPV1 potentiator	Menin MLL FP FL
O=C(CCC(=O)N1CCN(c2ccc(O)cc2)CC1)c1ccc(Br)cc1	.	?	.	.	.	-14	-1.4
c1ccc(Cn2nnc(-c3ccccc3)n2)cc1	22	13%	-6%	-0.9%	-7%	8	-0.4
CC(=O)c1c(O)cc2n(c1=O)-c1ccc(Cl)cc1C2(C)C	-2	0%	25%	-14%	3%	7	1.2
Cc1cc(C(=O)COC(=O)CC(NC(N)=O)c2ccc(Cl)cc2)c(C)n1C (configuration not stated)	29	.	13%	-2.0%	-4%	.	.
Cc1ccc(-n2ncc3c(=O)n(CC(=O)NC4CCCCC4)cnc32)cc1C	1	9%	1%	-28%	5%	22	0.1
CCCNc1nc(N)nc(-c2cc(Cl)ccc2OC)n1	1	6%	-5%	-10%	8%	4	0.5
CCOC(=O)c1ccccc1NC(=O)/C=C/C(=O)O	-1	2%	?	1.2%	-22%	17	1.9
NNC(=O)C1=NOC2COC3(CCN(c4ncccn4)CC3)OCC12 (configuration not stated)	-1	4%	-2%	.	0%	2	-3.8
CC(C)Cc1nccs1	2	.	?	-0.1%	13%	-7	.

High-throughput results (PubChem BioAssay)
